Screens: PubChem, National Center for Advancing Translational Sciences (NCATS)
TRPML1 ag: human mucolipin-1 channel agonism; TRPML1-expressing cells, Ca2+ dye fluorescence, FDSS; host cell line not named in the record; reference of the full effect not given here; AID 624414; 0.12% of 410,000 active; Q9GZU1; activation, % (no concentration beside the values); in the data active = activation above about 50%; inconclusive = about 30% to 50%; inactive = below about 30%; further: 0% is about no effect; the text of the record puts the active cut at 80%
Target sequence (Q9GZU1 whole entry, looked up): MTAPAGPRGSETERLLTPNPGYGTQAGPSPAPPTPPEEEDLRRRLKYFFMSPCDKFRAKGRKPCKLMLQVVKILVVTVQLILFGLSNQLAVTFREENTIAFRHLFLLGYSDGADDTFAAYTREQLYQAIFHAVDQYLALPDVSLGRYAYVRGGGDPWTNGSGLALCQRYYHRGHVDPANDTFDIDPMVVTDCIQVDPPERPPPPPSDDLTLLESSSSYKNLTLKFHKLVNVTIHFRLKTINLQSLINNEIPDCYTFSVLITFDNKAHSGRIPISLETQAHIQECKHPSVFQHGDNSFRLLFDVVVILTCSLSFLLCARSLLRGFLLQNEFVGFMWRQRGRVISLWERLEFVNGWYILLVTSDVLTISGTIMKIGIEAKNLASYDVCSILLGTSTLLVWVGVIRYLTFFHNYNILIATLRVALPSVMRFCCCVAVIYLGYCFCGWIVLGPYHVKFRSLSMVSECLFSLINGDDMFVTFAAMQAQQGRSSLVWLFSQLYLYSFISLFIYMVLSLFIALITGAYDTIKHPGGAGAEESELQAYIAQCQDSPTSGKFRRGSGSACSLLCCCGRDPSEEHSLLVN
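Calcium fluorescence on an FDSS kinetic reader gave the read-out. Tet-induced TRPML1-DL cells were plated overnight, dye-loaded (Ca8 with quencher, 45-90 min, room temperature, dark), then read 110 s after compound addition, and again 110 s after 4uM final 54-4 (EC80).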
D2 PAM: potentiates the human D2 dopamine receptor allosterically. P14416. DiscoveRx D2 beta-arrestin cells, luminescence, 90 min; 100% = 57 uM dopamine signal. 0.23% of 360,000 active. potentiation, % (test concentration not listed); active = potentiation of 50% or more; inconclusive = 30% to 50%; inactive = 30% or less;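 further: compound concentration not given in the record; tested on top of an EC20 dose of dopamine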
Target sequence (P14416 whole entry, looked up): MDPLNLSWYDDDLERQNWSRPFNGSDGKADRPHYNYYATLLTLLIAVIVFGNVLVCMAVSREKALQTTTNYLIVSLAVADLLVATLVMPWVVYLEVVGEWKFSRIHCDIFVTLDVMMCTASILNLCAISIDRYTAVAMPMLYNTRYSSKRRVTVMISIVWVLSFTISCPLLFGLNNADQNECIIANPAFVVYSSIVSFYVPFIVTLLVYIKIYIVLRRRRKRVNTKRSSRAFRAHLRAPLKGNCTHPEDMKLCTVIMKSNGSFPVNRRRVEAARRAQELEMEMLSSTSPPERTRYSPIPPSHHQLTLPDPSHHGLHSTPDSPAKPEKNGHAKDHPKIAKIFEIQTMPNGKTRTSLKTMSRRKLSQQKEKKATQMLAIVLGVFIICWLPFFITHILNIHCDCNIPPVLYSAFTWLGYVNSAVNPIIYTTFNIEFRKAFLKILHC
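PathHunter beta-arrestin assay in DiscoveRx D2 cells. Compounds were added with an EC20 of dopamine (50 nM final) for 90 min at 37 deg C. Luminescence was read 1 h after detection reagent, with 57 uM dopamine as the EC100 control.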
Six1-Eya2 inh: inhibitors of human Six1/Eya2 interaction; activity change, % (test concentration not listed); AlphaScreen GST-Six1/His-Eya2 binding, biochemical; active compounds read low; control for the full effect not named in the record; 0.56% of 360,000 active; in the data active = activity change below about -65%; inconclusive = about -30% to -65%; inactive = above about -30%; further: on the % scale 0 is the no-effect control and ±100 the full control effect
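AlphaScreen with GST-Six1 and His-Eya2 (5X mix: 250 nM and 500 nM), glutathione donor and nickel acceptor beads; buffer 50 mM Tris pH 8.0, 300 mM NaCl, 1 mM TCEP; 1 h at 37 C in the dark.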
CtBP-E1A inh: blocks the CtBP interaction with E1A | AlphaScreen GST-E1A/His-CtBP binding, 1536-well; active compounds read low; control for the full effect not named in the record | 0.49% of 340,000 active | activity change, % (concentration not given with the values); in the data active means activity change below about -65%; inconclusive means about -30% to -65%; inactive means above about -30%; further: on the % scale 0 is the no-effect control and ±100 the full control effect
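AlphaScreen with 125 nM GST-E1A and 125 nM His-CtBP (5X stocks) in Tris pH 8.0, 300 mM NaCl, BSA, Tween 20, TCEP. Compounds preincubated 2 h at 37 deg C, then glutathione donor/nickel acceptor beads added for 1 h at 37 deg C in dark.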
TRPV1 potentiator: potentiators of human vanilloid receptor 1 (TRPV1). 0.02% of 320,000 active. TRPV1-expressing cells, Fluo-8 calcium influx, capsaicin EC20 potentiation; host cell line not named in the record; control for the full effect not named in the record. potentiation, % at 8.33 µM. Q8NER1; active means potentiation above 80%; inconclusive means 30% to 80%; inactive means below 30%; further: 0% is about no effect
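Fluo-8 calcium influx in TRPV1-expressing cells, kinetic read (ex 480/em 520 nm). Compound added and read 3 min for agonist activity, followed by capsaicin at EC20 final and 2 min further read for enhancement.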
TRPML1 inh: human mucolipin-1 channel inhibition; 0.02% of 390,000 active; TRPML1-inducible cells, Ca2+ dye fluorescence, FDSS; active compounds read low; inhibition of EC80 agonist-evoked calcium signal; AID 624415; Q9GZU1; activity change, negative = inhibition, % (test concentration not listed); in the data active means activity change below about -50%; inconclusive means about -30% to -50%; inactive means above about -30%;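 further: stimulus is agonist 54-4 at its EC80 concentration; on the % scale 0 is the no-effect control and ±100 the full control effect; compound concentration not given in the record; the text of the record puts the active cut at -80%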
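Calcium fluorescence in TRPML1-DL cells induced overnight with Tet: a 110 s read after compound pin addition, then a 110 s antagonist read after challenge with 54-4 at 4 uM final (EC80).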
Active calls of the source: *; ? = inconclusive; nt = no result given; & = joins results of further samples. Compounds were not picked by outcome; 0.95% or so of the library scored in one or more.

SMILES	TRPML1 ag	D2 PAM	Six1-Eya2 inh	CtBP-E1A inh	TRPV1 potentiator	TRPML1 inh
CCOc1ccc(NC2CCN(C(C)=O)CC2)cc1	-0.1	1	-7	0	-4	2
COc1ccc(/C=C/C(=O)NC(=S)Nc2ccc(Br)cn2)cc1	1.1	1	5	-10	4	18
CC(=O)c1cccc(NC(=O)C2Cc3c(-c4cccc(C(N)=O)c4)ccnc3O2)c1 (stereo not given)	-0.4	-2	-2	-2	nt	nt
COC(=O)C(C)N1CCC(=O)c2ccccc2S1(=O)=O (stereo not given)	0.9&-0.1	-9	-5	nt	-6	-5&-9
CCN(CC)C(=S)SC1CCCCN(C(=O)c2ccc(F)cc2)C1=O (stereo not given)	-2.0	1	1	4	-6	8
COCCSc1ccccc1C(=O)N1CCCC(C)C1 (stereo not given)	0.8	-3	5	nt	-2	20
C=CCN(Cc1cn(C)nc1-c1cccc(Cl)c1)C1CCS(=O)(=O)C1 (stereo not given)	-0.2	-8	0	2	-2	5
O=C(CSc1nc(=O)n(CCN2CCOCC2)c2c1CCCC2)Nc1cccc([N+](=O)[O-])c1	-0.6	-5	-6	0	3	-6
Cc1ccc(Cl)cc1N1CCN(C(=O)C2CCN(c3nnc(-n4cccc4)s3)CC2)CC1	2.5	-5	-8	-28	-2	36
CCOC(=O)c1cc(-c2ccccc2)nc2nc(N(CC)CC)sc12	4.3	-7	40	70	-28	-8
CCc1nn(C(C)C(=O)NCc2ccc(Cl)cc2)c(=O)c2cc3occc3n12 (stereo not given)	0.0	-15	-2	0	7	9
COC(=O)c1ccc(NC(=O)CN2C(=O)CNC2=O)cc1	1.1	-28	-2	4	-48	22
COc1ccc(Oc2cccc(Cl)c2CNC(=O)c2ccccc2C(=O)O)cc1	4.5	-5	0	-6	14	30
C(=C\c1ccccc1)/CN1CCN(C(c2ccccc2)c2nnnn2-c2ccc3c(c2)OCCO3)CC1 (stereo not given)	-0.6	-15	?	?	nt	nt
Cn1cnnc1SCC(=O)Nc1nc(-c2ccccc2)cs1	-1.2	-7	4	6	-3	-7
O=C1CCCC2=C1C(c1ccccc1)CC(=O)N2c1ccc(F)cc1F (stereo not given)	-0.8	-1	11	-14	-10	1
COc1cc(C(=O)Nc2ccc(NC(C)=O)cc2)ccc1OCc1ccccc1	0.0	1	0	0	5	-15
C=CCNC(=O)C1CC(=O)N(c2ccc(OCC(=O)N3CCCC3)cc2)C1 (stereo not given)	-1.0	-6	13	-20	16	-3
O=C1NC2(CCCCC2)C(=O)N1CC(=O)N(Cc1ccccc1)c1ccccc1	-0.3	-8	5	-1	-37	2
O=[N+]([O-])c1cccc(C2CC(c3ccccc3)=NN2c2ccccc2)c1 (stereo not given)	0.9	-7	?	?	2	36
CC(=O)c1ccc(C(=O)NC2CCCN(Cc3ccccc3F)C2)s1 (stereo not given)	-0.6	-21	-3	-4	-4	-3
COc1ccccc1NC(=O)Cc1nnc(SCC(=O)Nc2ccccc2F)n1C	0.3	-2	14	4	2	-6
CC(=O)NCCn1c(SCc2cc(=O)n3cc(Cl)ccc3n2)nc2ccccc2c1=O	2.3	-7	-2	7	11	-1
CC1Cc2ccccc2N1C(=O)CN1C(=O)CN(C)C(=O)c2ccccc21 (stereo not given)	-0.3	0	2	-1	9	15
CCOC(=O)[C@H]1[C@H]2COc3cc(OC)ccc3[C@@H]2N2C(=O)CN(CC3CCCO3)C(=O)[C@@]12C (stereo not given in full)	0.2	-10	5	5	-6	-17

Remaining list, next part.
SMILES	TRPML1 ag	D2 PAM	Six1-Eya2 inh	CtBP-E1A inh	TRPV1 potentiator	TRPML1 inh
Fc1ccc(N/N=C/c2ccncc2)c(F)c1	-0.6	14	2	3	-7	10
CCOc1cc(C2C3=C(CCCC3=O)N(C)C3=C2C(=O)CCC3)cc(Cl)c1O	-1.7	15	-2	0	0	1
Cc1cc(C(=O)NNC(=O)Nc2ccc(Cl)cc2)no1	0.8	-12	-5	-3	0	19
CCC(=NNS(=O)(=O)c1ccc(C)cc1)c1ccc(OC)c(C)c1	1.1	-8	-1	-4	nt	12
COCCOC(=O)C1=C(C)Nc2ncnn2C1c1ccccc1 (stereo not given)	-0.5	19	-6	1	25	-4
CC1CN(C(=O)CSc2nnc(NC(=O)NC(C)(C)C)s2)CC(C)O1 (stereo not given)	1.0	-1	1	9	0	6
COC(=O)[C@@H]1C[C@@]2(O)[C@H](O)[C@H](O)[C@H](O)C[C@H]2N1Cc1cccc2ccccc12	-0.6	3	2	4	?	5
Nc1nonc1C(=O)NCCNc1ccc([N+](=O)[O-])cc1	-0.8	-23	-2	nt	nt	-2
COc1cc(/C=N/N=C(\N)c2nonc2N)ccc1O	1.1	-2	-26	-14	0	4
OCCCN1CCN(CCOc2ccccc2-c2ccccc2)CC1	0.0	-11	2	7	8	-12
CCc1nn2cc(C(=O)c3cc(Cl)ccc3O)cnc2c1-c1ccc(F)cc1	1.3	-8	-20	1	-17	-13
O=C(CN1CCCc2ccccc21)N/N=C/c1ccc(O)cc1O	0.0	0	?	-27	-4	46
CC(=O)c1cccc(-c2ccnc3c2CC(C(=O)NCc2cccs2)O3)c1 (stereo not given)	-1.4	-1	-4	-3	nt	nt
O=Cc1c(NCc2ccco2)nc2ccccn2c1=O	0.3	-1	-8	-3	11	1
Cc1cc(C)[n+]2[nH]c(N)c(N=Nc3ccccc3)c2n1	0.6	-5	-26	-30	-11	-15
CC(=O)Nc1ccc(-c2ccnc3c2CC(C(=O)NCc2ccc(N4CCN(C)CC4)cc2)O3)cc1 (stereo not given)	-0.9	3	-6	-5	nt	nt
Cc1cccc(N2CCN(C(=O)CCCn3c(=S)[nH]c4cc5c(cc4c3=O)OCO5)CC2)c1C	1.4	-2	-10	-5	5	0
C#CCOCCOCCOCCNc1nc(N2CCN(C(=O)[C@H](CCCCN)n3cc([C@@H](N)CC(N)=O)nn3)CC2)nc(N2CCN(C(=O)[C@H](CCCCN)n3cc([C@@H](N)CC(N)=O)nn3)CC2)n1	-0.4	-5	1	?	nt	-25
Cc1ccc(C)c(S(=O)(=O)N2CCN(C(=O)C(C)Sc3ccccc3)CC2)c1 (stereo not given)	1.7	-8	2	-11	0	16
CCOC(=O)C1CCCN(C(=O)c2cc(Nc3ccc(OC)c(OC)c3)nc3ccccc23)C1 (stereo not given)	-0.3	5	-18	-12	11	5
Cc1ccc(S(=O)(=O)CC(=O)N(CCCN2CCOCC2)c2nc3c(F)cccc3s2)cc1	-0.7	-8	-3	0	-10	40
Cc1ccc(S(=O)(=O)NCCCCCC(=O)Nc2cccc(C)c2)cc1	1.5	-26	6	3	6	3
NC1=C([N+](=O)[O-])C(c2ccc(F)cc2)C2=C(CCCC2=O)O1 (stereo not given)	0.4	-5	4	-4	-10	1
CN1CCN(S(=O)(=O)Cc2ccc(Cl)cc2)CC1	-0.2	-5	0	7	-7	-12
COc1ccc(S(=O)(=O)NN=C2CCCC2)cc1	0.1	-3	0	10	1	24

(continued)
SMILES	TRPML1 ag	D2 PAM	Six1-Eya2 inh	CtBP-E1A inh	TRPV1 potentiator	TRPML1 inh
CCOC(=O)C1=CCN(S(=O)(=O)c2ccccc2C)C1c1ccc(Cl)cc1 (stereo not given)	0.8	-8	3	6	nt	3
CCOc1ccc(NC(=O)CCC(=O)NNC(=O)COc2ccccc2C)cc1	-0.1	0	6	nt	-5	-3
O=C(Cc1cccs1)NNC(=S)NCc1ccc(Cl)cc1	-0.4	-19	-9	-1	0	2
CC1CN(S(=O)(=O)c2cccc(-c3csc(-c4ccccc4)n3)c2)CC(C)O1 (stereo not given)	1.2	-25	7	0	5	40
CCC(=O)N1N=C(c2ccccc2)CC1c1ccc([N+](=O)[O-])cc1 (stereo not given)	-0.2	15	-5	0	-21	-1
CCC(C)Sc1nc2c(c(=O)[nH]c(=O)n2C)n1CCc1ccccc1 (stereo not given)	3.7	-11	-8	-2	-19	13
CCN(CC)CCNC(=O)C1(O)c2cc(Br)ccc2NC(=O)N1c1c(F)cccc1F (stereo not given)	2.8	0	3	5	15	30
Cc1ccc(-n2ncc3c(NCc4ccccc4)ncnc32)cc1	-0.5	2	-4	8	11	3
O=C(CSc1ccc([N+](=O)[O-])cn1)Nc1ccccc1N1CCOCC1	-0.1	0	12	-13	7	-11
N=c1c(S(=O)(=O)c2ccccc2)cc2c(=O)n3ccccc3nc2n1CCCN1CCOCC1	-0.6	-3	-13	-12	14	21
O=C(Nc1ccccc1N1CCCC1)c1ccc2c(c1)OCO2	2.6	-2	-3	-10	8	29
O=c1[nH]c2cc([N+](=O)[O-])ccc2c2ccc([N+](=O)[O-])cc12	0.2	-1	-11	4	nt	7
O=C(CN1C(=O)NC2(CCCC2)C1=O)NCc1ccc(F)cc1	0.6	-8	-6	0	nt	18
O=C(NCCN1CCC(n2c(=O)[nH]c3ccccc32)CC1)c1cccc(Cl)c1	-0.5	nt	4	-17	nt	nt
Cc1ccc(CCNC(=O)c2ccc3nc4ccccc4c(=O)n3c2)cc1	0.0	-2	?	nt	7	11
COc1ccc(NC(=O)c2cc(OC)c(OC)c(OC)c2)cn1	0.0	-20	15	62	-9	-16
COC(=O)CN1C(=O)[C@H]2[C@@H](/C=C/c3ccccc3)N3C(=O)CN(CC4CC4)C(=O)[C@@]3(Cc3ccccc3)[C@H]2C1=O	0.4	-13	7	-19	5	-6
COc1ccccc1OCc1ccc(C(=O)NC(C)c2ccccc2)o1 (stereo not given)	3.0	1	-11	0	6	-2
COc1ccc(S(=O)(=O)NCC(=O)N(CC(=O)NCc2ccco2)C2CCCC2)cc1	-1.2	-5	-16	0	5	-8
O=C(CN1C(=O)NC(Cc2ccccc2)C1=O)Nc1ccc(OC(F)(F)F)cc1 (stereo not given)	-1.0	-5	0	nt	28	-9
COc1ccccc1N(C(=O)c1ccco1)C(C(=O)NC1CCCCC1)c1cc(OC)c(OC)c(OC)c1 (stereo not given)	2.1	-2	?	?	-3	5
c1ccc2c(c1)CNc1ccccc1-2	0.3	-6	7	0	nt	-12
CCOC(=O)C1CCN(C(=O)CN(c2ccc3c(c2)OCCO3)S(C)(=O)=O)CC1	3.9	-7	5	3	0	40

Record cards (already shown). Order of values: TRPML1 ag	D2 PAM	Six1-Eya2 inh	CtBP-E1A inh	TRPV1 potentiator	TRPML1 inh
Entry for CC1CN(S(=O)(=O)c2cccc(-c3csc(-c4ccccc4)n3)c2)CC(C)O1 (stereo not given) = 1.2	-25	7	0	5	40
Entry for CCC(=O)N1N=C(c2ccccc2)CC1c1ccc([N+](=O)[O-])cc1 (stereo not given) = -0.2	15	-5	0	-21	-1
Entry for O=C(Cc1cccs1)NNC(=S)NCc1ccc(Cl)cc1 = -0.4	-19	-9	-1	0	2
Entry for CCN(CC)CCNC(=O)C1(O)c2cc(Br)ccc2NC(=O)N1c1c(F)cccc1F (stereo not given) = 2.8	0	3	5	15	30
Entry for COc1ccc(S(=O)(=O)NCC(=O)N(CC(=O)NCc2ccco2)C2CCCC2)cc1 = -1.2	-5	-16	0	5	-8
